Calb biofilm kill – mixtures killing C. albicans biofilm | C. albicans biofilm persisters + clotrimazole, fluorescence viability; primary screen in compound mixtures of four per well | inhibition, % at 7.6 µM | 120,000 compounds, 0.02% hits;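 active = inhibition above 30.3% in the primary screen of four-compound pools, then above 30% when the compound was retested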;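 note: compounds exposed to preformed 24 h biofilms for 48 h; the number belongs to the whole pool; some results filed as inactive read as strong as hits; inactives centre near 12; 0% = biofilm with clotrimazole alone and 100% = kill control; retested singly at about 60 µM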
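Incubation: 24 h biofilm formation, then 48 h compound exposure, 37 °C | Material: C. albicans biofilms | Buffer or medium: RPMI/MOPS medium, pH 7.0 | Measured by: 2-h Alamar Blue fluorescence, 535/590 nm excitation/emission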
The depositor's hits bear a star.

`CCCCC1=CC2=C(c3ccco3)C(=O)C(C)(OC(=O)c3ccc(OC)cc3)C(=O)C2=CN1CCOC` (stereo not drawn) gave Calb biofilm kill 11.
Screening Cc1ccc(C(=O)N2CCc3ccccc32)o1 returned Calb biofilm kill 4.
Screening CCN1CCN(c2c(C(=O)c3ccc(OC)cc3)cnc3ccccc23)CC1 returned Calb biofilm kill 12.
`OC(c1ccccc1)c1cccnc1` (stereo not drawn) gave Calb biofilm kill 12.
`Cc1ccc(Nc2c([N+](=O)[O-])c(=O)oc3ccccc23)cc1` gave Calb biofilm kill 12.
`COc1ccc(-c2[nH]nc3oc(=O)c(CCO)c(C)c23)cc1` gave Calb biofilm kill -2.
`CC(C)NC(=O)c1cc2c(s1)CCCC2` gave Calb biofilm kill 11.
Screening O=C(NCCC1=CCCCC1)C(=O)NCC1OCCCN1S(=O)(=O)c1ccccc1 (stereo not drawn) returned Calb biofilm kill 13.
Cc1ccnc(NS(=O)(=O)c2ccc(NC(=O)c3ccc(S(=O)(=O)N4CCCC4)cc3)cc2)n1 was read as Calb biofilm kill 4.
Screening O=C(NCC1CCCO1)NC1CCCCC1 (stereo not drawn) returned Calb biofilm kill 8.
CCCCCCNC(=O)c1cccc(-c2ccc(C)c3ccccc23)n1 was read as Calb biofilm kill 12.
For Cc1ccc(C(=O)NC(=S)Nc2ccc(-c3cc4ccccc4oc3=O)cc2)c(C)c1 the results were Calb biofilm kill 0.
`COc1ccc2cc3c(N)nn(C(=O)C4CCC(C(C)(C)C)CC4)c3nc2c1` (stereo not drawn) gave Calb biofilm kill 11.
For Cc1c(C#N)c(N)nc2c3c(sc12)NC(=O)CC3c1ccc(Cl)cc1 (stereo not drawn) the results were Calb biofilm kill 7.
Screening O=C(COc1ccc(Cl)cc1)NCCSCc1ccccc1Cl returned Calb biofilm kill 14.
COc1cc(OC)cc(C(=O)OCc2ccc([N+](=O)[O-])cc2)c1 was read as Calb biofilm kill 8.
For CC(C)c1nnc(NC(=O)c2cc3cc(Br)ccc3oc2=O)s1 the results were Calb biofilm kill 26.
Screening Cc1ccc(S(=O)(=O)NCCC(=O)OCC(=O)NC(=O)c2cccn2C)cc1 returned Calb biofilm kill 13.
For CCNC(=O)COC(=O)c1[nH]c(C)c(C(=O)OC)c1C the results were Calb biofilm kill 10.
Screening CCOC(=O)C(C)(C)Sc1ncnc2nc[nH]c12 returned Calb biofilm kill 12.
CN1C=CC=C/C1=C1\SC(=S)N(Cc2ccccc2)C1=O was read as Calb biofilm kill 21.
`O=C(NCCCc1ccccc1)c1cccc([N+](=O)[O-])c1` gave Calb biofilm kill 12.
For CCCCOc1ccc2c(c1)C(=O)c1cc(O)ccc1-2 the results were Calb biofilm kill 15.
CC(C)(Sc1cc(C(C)(C)C)c(O)c(C(C)(C)C)c1)Sc1cc(C(C)(C)C)c(O)c(C(C)(C)C)c1 was read as Calb biofilm kill 15.
Screening Cc1cc(C)c2oc(C(=O)Nc3ccc(S(=O)(=O)N4CCC(C)CC4)cc3)cc(=O)c2c1 returned Calb biofilm kill 6.
O=C(CCNC(=O)Cn1ccc2ccccc2c1=O)NCC1CCCC1c1ccccc1 (stereo not drawn) was read as Calb biofilm kill 14.
Screening O=C(NCCN1C(=O)S/C(=C\c2cccnc2)C1=O)c1cccc(OC(F)F)c1 returned Calb biofilm kill 15.
CCOC(=O)c1c(NC(=S)NCCc2ccccc2)sc2c1CC(C(C)C)OC2 (stereo not drawn) was read as Calb biofilm kill 14.
Screening COc1ccc(NC(=O)/C(C#N)=C/c2ccc(Sc3nncn3C)c([N+](=O)[O-])c2)cc1 returned Calb biofilm kill 2.
`NC1=NC(=O)C2(COC(c3cccc([N+](=O)[O-])c3)OC2)S1` (stereo not drawn) gave Calb biofilm kill 10.
Screening COc1cc2c3c(c1)C(C)CC(C)(C)N3C(=O)C2=O (stereo not drawn) returned Calb biofilm kill 11.
`CCOC(=O)C1CCCN(c2nc3ccccc3nc2C(C#N)C(=O)OC(C)C)C1` (stereo not drawn) gave Calb biofilm kill 6.
For COc1ccc(NC(=O)COc2ccc(C(=O)OCC(=O)N(C(C)C)C(C)C)cc2OC)cc1 the results were Calb biofilm kill 14.
CC(=O)c1ccc(NC(=O)COc2ccc3c(c2)OCO3)cc1 was read as Calb biofilm kill -4.
Screening CCOC(=O)c1ccc(S(=O)(=O)NNC(=O)COc2cccc(C)c2)cc1 returned Calb biofilm kill 10.
`O=C1CC(C(=O)Nc2cccc(F)c2)n2c(nc3ccccc32)N1` (stereo not drawn) gave Calb biofilm kill 15.
O=C(c1ccccc1)N1CCN(c2nc3ccc([N+](=O)[O-])cc3s2)CC1 was read as Calb biofilm kill -3.
For COc1ccccc1/C=C(/CC(=O)NCc1ccc2c(c1)OCO2)c1nc2ccccc2s1 the results were Calb biofilm kill 12.
Screening COc1ccc(/C=N/Nc2ncnc3c2[nH]c2ccccc23)c(OC)c1OC returned Calb biofilm kill 6.
`CCC(CC)C(=O)N1N=C(c2ccc(NS(C)(=O)=O)cc2)CC1c1ccccc1` (stereo not drawn) gave Calb biofilm kill 19.
Screening COC(=O)c1ccccc1NC(=S)N1CCC(N2CCCCC2)CC1 returned Calb biofilm kill 16.
Screening CN(Cc1ccccc1)C(=O)c1ccccc1Br returned Calb biofilm kill 7.
Screening CCCNC(=O)c1onc(CSc2cccc(OC)c2)c1C(=O)NCCC returned Calb biofilm kill -1.
Screening Cc1ccc(N2CCN(CC(O)COc3cccc(C)c3)CC2)cc1 (stereo not drawn) returned Calb biofilm kill 20.
For CCOc1ccc(N2Nc3n[nH]c(N)c3N2)cc1 the results were Calb biofilm kill 7.

Structures shown so far containing a Cl atom, in the order listed:
For Cc1c(C#N)c(N)nc2c3c(sc12)NC(=O)CC3c1ccc(Cl)cc1 (stereo not drawn) the results were Calb biofilm kill 7.
Screening O=C(COc1ccc(Cl)cc1)NCCSCc1ccccc1Cl returned Calb biofilm kill 14.

The listing picks up, starting 3 compounds before the break.
Screening CCCNC(=O)c1onc(CSc2cccc(OC)c2)c1C(=O)NCCC returned Calb biofilm kill -1.
Screening Cc1ccc(N2CCN(CC(O)COc3cccc(C)c3)CC2)cc1 (stereo not drawn) returned Calb biofilm kill 20.
For CCOc1ccc(N2Nc3n[nH]c(N)c3N2)cc1 the results were Calb biofilm kill 7.
For COc1cc(/C=N/Nc2ccc(C)cc2)cc(Br)c1O the results were Calb biofilm kill 12.
O=S(=O)(NC(=S)NC1CCCCC1)c1ccc(Br)cc1 was read as Calb biofilm kill 16.
`COc1ccc2cc(Br)ccc2c1CC(=O)NC(C)(C)C` gave Calb biofilm kill 3.
`Cc1ccccc1C(=O)Nc1nc(-c2cccnc2)cs1` gave Calb biofilm kill 15.
For CCOC(=O)C1=C(C)NC(=NC)SC1c1ccccc1 (stereo not drawn) the results were Calb biofilm kill 19.
Screening Cn1cnnc1SCC(=O)Nc1ccc(F)cc1F returned Calb biofilm kill -8.
`COc1ccc(C2Nc3ccccc3C(=O)N2NC(C)=O)cc1OC` (stereo not drawn) gave Calb biofilm kill 18.
For Cc1ncoc1C(=O)N1CCCC(C(=O)c2cccc3ccccc23)C1 (stereo not drawn) the results were Calb biofilm kill 28.
Screening CCOc1ccc(CSC2=NCCN2)cc1[N+](=O)[O-] returned Calb biofilm kill 4.
Screening Cc1ccccc1OC(C)C(=O)NCc1cccnc1 (stereo not drawn) returned Calb biofilm kill -1.
For O=C(CCN1C(=O)C2C3CCC(C3)C2C1=O)Nc1ccc([N+](=O)[O-])cc1 (stereo not drawn) the results were Calb biofilm kill 14.
`O=C(CCc1ccccc1)NNc1cc(N2CCCCC2)nc(N2CCCCC2)n1` gave Calb biofilm kill 16.
`NNC(=O)C(=O)NCCCN1CCOCC1` gave Calb biofilm kill 8.
For CCOC(=O)c1nn(-c2ccc(OCC)cc2)c2nc(-c3ccco3)c(C#N)c(=O)n12 the results were Calb biofilm kill 15.
`CNc1ncnc2sc(-c3ccccc3)cc12` gave Calb biofilm kill -11.
Cc1ccc2[nH]c(=O)c3cc(C(=O)N(C)c4ccccc4C)sc3c2c1 was read as Calb biofilm kill 24.
`OCc1nc2nc(Cl)c(Cl)nc2[nH]1` gave Calb biofilm kill 10.
`Cn1cnnc1SCC(=O)NCc1ccccc1` gave Calb biofilm kill 11.
For O=[N+]([O-])c1cc(/C=N/N/C(=N/c2ccccn2)c2ccccn2)ccc1O the results were Calb biofilm kill -2.
Screening COCCCNC(=S)NCCNc1nc2cc(C)cc(C)c2cc1C#N returned Calb biofilm kill 4.
`O=C(c1ccc(OC2CCN(CCc3ccccc3)CC2)cc1)N1CCCC(CO)C1` (stereo not drawn) gave Calb biofilm kill 11.
C=C(C(=O)c1ccccc1)C(CC(=O)c1ccccc1)c1ccccc1 (stereo not drawn) was read as Calb biofilm kill 20.
For COc1ccc(S(=O)(=O)N(C)c2ccc(C(=O)N3CCC(C(N)=O)CC3)cc2)cc1OC the results were Calb biofilm kill 8.
Clc1ccc(CN2CCN(/N=C/c3ccco3)CC2)cc1 was read as Calb biofilm kill 7.
For Cc1ccc(CSCCC(=O)NCCc2ccc(Cl)cc2)cc1 the results were Calb biofilm kill 10.
`COc1ccc(C(=O)c2c[nH]c(C(=O)N=CN(C)C)c2)cc1` gave Calb biofilm kill 1.
`O=C(CCCc1cccs1)Nc1ccc2c(c1)OCO2` gave Calb biofilm kill 15.
For COC(=O)[C@@H](NC(=O)N1CCC(C)CC1)C(C)C the results were Calb biofilm kill 5.
For O=C(Cn1c(Cc2ccccc2)nc2ccccc21)NCc1ccc2c(c1)OCO2 the results were Calb biofilm kill 17.
O=C(COc1ccc(Cl)cc1)NCCN1CCCCC1 was read as Calb biofilm kill 17.

The closing 7 compounds of the section before come first, to join the parts.
Clc1ccc(CN2CCN(/N=C/c3ccco3)CC2)cc1 was read as Calb biofilm kill 7.
For Cc1ccc(CSCCC(=O)NCCc2ccc(Cl)cc2)cc1 the results were Calb biofilm kill 10.
`COc1ccc(C(=O)c2c[nH]c(C(=O)N=CN(C)C)c2)cc1` gave Calb biofilm kill 1.
`O=C(CCCc1cccs1)Nc1ccc2c(c1)OCO2` gave Calb biofilm kill 15.
For COC(=O)[C@@H](NC(=O)N1CCC(C)CC1)C(C)C the results were Calb biofilm kill 5.
For O=C(Cn1c(Cc2ccccc2)nc2ccccc21)NCc1ccc2c(c1)OCO2 the results were Calb biofilm kill 17.
O=C(COc1ccc(Cl)cc1)NCCN1CCCCC1 was read as Calb biofilm kill 17.
COc1cc(OC)cc(C(=O)Nc2ccc([N+](=O)[O-])cn2)c1 was read as Calb biofilm kill 1.
For Cc1ccc(-c2cc(C(=O)Nc3nccs3)c3ccccc3n2)c(C)c1 the results were Calb biofilm kill 3.
CCN(CC)S(=O)(=O)c1cccc(-c2n[nH]c(=S)n2Cc2ccccc2)c1 was read as Calb biofilm kill 8.
`Cc1ccc(OCC(=O)Nc2ccc(S(=O)(=O)Nc3ccccn3)cc2)c(C)c1` gave Calb biofilm kill 1.
For O=C(COC(=O)c1ccc(O)cc1)Nc1cccc(S(=O)(=O)NC2=NCCCCC2)c1 the results were Calb biofilm kill 9.
Screening O=C(CSc1ccc([N+](=O)[O-])cn1)Nc1ccc(N2CCOCC2)cc1 returned Calb biofilm kill 2.
`Cc1cc(C)c(C(=O)Cn2cnc3cc([N+](=O)[O-])ccc3c2=O)cc1C` gave Calb biofilm kill 14.
Screening COc1cc(OC)c(NC(=O)c2cccc(F)c2)cc1Cl returned Calb biofilm kill 17.
Screening COc1ccc(NC(=O)N2CCCC(c3nc(-c4ccc(OC)cc4)no3)C2)cc1 (stereo not drawn) returned Calb biofilm kill 29.
For Cc1ccc(CNC(=O)CNC(=S)N(Cc2ccccc2)Cc2ccccc2F)cc1 the results were Calb biofilm kill 14.
`N#Cc1cc2c(ccc3ccccc32)oc1=O` gave Calb biofilm kill 5.
Screening CCn1c2ccccc2c2cc(NC(=O)Nc3ccc([N+](=O)[O-])cc3C)ccc21 returned Calb biofilm kill 22.
O=C(/C=C1\C(=O)Nc2ccccc21)/C=C1\C(=O)Nc2ccccc21 was read as Calb biofilm kill 4.
N/C(CSc1ccc(Cl)cc1)=N\NC(=O)c1ccncc1 was read as Calb biofilm kill -13.
O=[N+]([O-])c1cccc(CSc2nnc(Cc3ccccc3)n2-c2ccc(F)cc2)c1 was read as Calb biofilm kill 13.
Screening N=c1sccn1CC(=O)Nc1cc(S(=O)(=O)N2CCCC2)ccc1Cl returned Calb biofilm kill 10.
Screening COc1ccc(CNc2nc(SCc3cc(=O)n4cc(Cl)ccc4n3)nc3ccccc23)cc1 returned Calb biofilm kill 22.
`Nn1cnc2scc(-c3cccs3)c2c1=O` gave Calb biofilm kill 6.
Screening c1ccc(-c2cc3c(N4CCCC4)ncnc3s2)cc1 returned Calb biofilm kill 16.
Screening CCCNC(=O)Cn1nc([N+](=O)[O-])c([N+](=O)[O-])c1C returned Calb biofilm kill 13.
CCn1c(=O)c(C(=O)Nc2ncccc2C)c(O)c2ccccc21 was read as Calb biofilm kill 26.
`CC(=O)NNC(=O)c1nc(-c2ccccc2)c(C)o1` gave Calb biofilm kill 11.
Cc1ccc(/C=N/N=C2/NC(=O)C(CC(=O)N3CCOCC3)S2)cc1 (stereo not drawn) was read as Calb biofilm kill 3.
Screening COc1cc(/C=N/NC(=O)C(N)=O)ccc1OCC(=O)N1C(C)CCCC1C (stereo not drawn) returned Calb biofilm kill -1.
For CC1CN(CCOc2ccccc2[N+](=O)[O-])CC(C)O1 (stereo not drawn) the results were Calb biofilm kill 8.
`O=C(CCN1CCOCC1)N1CCc2c([nH]c3ccccc23)C1c1cccc(Cl)c1` (stereo not drawn) gave Calb biofilm kill 31.
Screening COc1ccc(/C=C/C(=O)C2CC2)cc1Cn1nc(C)c([N+](=O)[O-])c1C returned Calb biofilm kill 12.

From PubChem

Only part of the results is shown; the hit share may differ from the screen's.
